Source: PubChem
Ba CapD inh: blocks the Bacillus anthracis CapD enzyme; purified CapD enzyme, fluorescence intensity read-out; stronger effect = lower value; some hits fall short of the stated cut; z-score (no concentration beside the values); 140,000 tested, 0.23% active; AID 492967;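 active = z-score under -4 in either of two replicates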;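 note: stock transfer was 100 nL into about 40 µL; score is relative to mean and spread of the plate; one replicate is shown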
AID504770: E. coli YBA685 growth inhibition, screen for V. cholerae RctB inhibitors. z-score (concentration not given with the values). AID 504770. E. coli YBA685 rctB-dependent plasmid, OD600 growth, 3 h; stronger effect = lower value. 130,000 tested, 0.27% active;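 active = z-score under -2 on both plates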;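 note: wells of about 30 µL received 100 nL stock; score is relative to mean and SD of the test wells; the first replicate is given; strong numbers were not always called active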
* marks the source's active call; other numbers are inactive results; i = inactive; · = no result given; & = joins results of further samples.

The line under a structure holds: Ba CapD inh	AID504770
> CC(=O)Nc1ccc2c(CSc3nnc(-c4cccs4)n3CC3CCCO3)cc(=O)oc2c1 (stereo not drawn)
    ·	0.95
> COc1cnn(-c2ccccc2)c(=O)c1OC
    0.025	0.3
> Cc1nc2ccc(NC(=S)NCCCO)cc2nc1C
    ·	0.3
> O=C(CC(SCc1ccco1)c1ccc(F)cc1)c1ccco1 (stereo not drawn)
    -0.335	-0.95
> CCCc1cc(C(=O)NC(C)C)no1
    0.02	-0.65
> CCOC(=O)c1ccc(NC(=O)CC2C(=O)N(c3ccc(F)cc3)C(=O)N2Cc2cccs2)cc1 (stereo not drawn)
    3.24	0.1
> CCn1c(C)c(C)c2cc(C(=O)NCc3cccs3)ccc21
    1.62	-0.05
> CC(C)(C)OC(=O)/N=C(\N)N(CCCC(NC(=O)OC(C)(C)C)C(=O)N1CCCN(C(=O)OC(C)(C)C)CC1)C(=O)OC(C)(C)C (stereo not drawn)
    -0.07	·
> CCOC(=O)c1c[nH]c(=S)[nH]1
    0.14	·
> CCOC(=O)/C(C#N)=C1/C(=O)Nc2ccc(Br)cc21
    -0.615	0

Later entries
The line under a structure holds: Ba CapD inh	AID504770
> O=C(COc1ccc(Cl)cc1Cl)NO
    -0.345	-5.45*
> Cc1cc(Br)ccc1Nc1ncnc(N)n1
    0.365	·
> Cc1nnsc1C(=O)NCc1csc2ccc(Cl)cc12
    0.19	-0.5
> Cc1c(C(=O)Nc2ccccc2)sc2ncn(CC(N)=O)c(=O)c12
    -0.26	-1.6
> Cc1cc(C)c(C2=NON3N(C(=O)c4ccc(C(=O)c5ccccc5)cc4)c4ccccc4N23)c(C)c1
    0.17	·
> O=C(/C=C/c1ccc(-c2ccc(Cl)cc2Cl)o1)c1ccc(Cl)cc1
    -0.335	·
> CCCn1c(C(=O)OCC)cc2sccc21
    ·	0.7
> COc1ccc2c(c1OC)C(=O)OC2Nc1ccccn1 (stereo not drawn)
    i	0.1
> Nc1ccc(N2CCOCC2)c(N)c1
    ·	0.25
> CCN(C(=O)Nc1ccccc1)c1ccccc1
    0.345	-0.4

Entries listed so far with two or more sulfur atoms, in the order listed:
The line under a structure holds: Ba CapD inh	AID504770
> CC(=O)Nc1ccc2c(CSc3nnc(-c4cccs4)n3CC3CCCO3)cc(=O)oc2c1 (stereo not drawn)
    ·	0.95
> Cc1nnsc1C(=O)NCc1csc2ccc(Cl)cc12
    0.19	-0.5

(listing goes on)
The line under a structure holds: Ba CapD inh	AID504770
> CC1(C)OC(=O)C(=Cc2cccs2)C(=O)O1
    -0.63	·
> CC(=O)Nc1nc(-c2ccc(S(=O)(=O)N3CCOCC3)cc2)cs1
    0.715	-0.85
> CCOC(=O)C1=C(N)OC2=C(C(=O)CCC2)C1c1ccccc1 (stereo not drawn)
    0.65	·
> S=C1NC2(CCCC2)NN1c1ccccc1
    0.41	-0.7
> C=C1SC(Nc2cccc(C)c2)=NC1(C)C
    -0.86	0
> COc1ccc(N2C(=O)/C(=C/c3ccc(Cl)cc3)C=C2c2ccccc2)cc1
    -0.375	·
> CCn1cc(C(=O)NC2CCCCC2)c(=O)c2cc(S(=O)(=O)N3CCCC3)ccc21
    -0.575	0.45
> O=C(/C=C/c1ccccc1)Sc1nc2ccccc2o1
    -0.335	-0.75
> Cc1cc(O)c(Cc2c(O)cc(C)n(C)c2=O)c(=O)n1C
    ·	-0.5
> NC(=O)c1ccccc1NC(=O)c1cccnc1N1CCCC1
    0.245	0.55

More results
The line under a structure holds: Ba CapD inh	AID504770
> Cc1cc(C)c2c(N)c(C(=O)Nc3ccc(Br)cc3)sc2n1
    12.1	·
> O=c1[nH]c2c(s1)C(c1cccs1)C1C3CCC(C3)C1S2 (stereo not drawn)
    0.195	0.4
> Nc1ccc(/C=C/C(=O)O)cc1
    ·	0.7
> C/C(=N\OCc1ccc(Cl)cc1)c1sc2nc3ccccc3n2c1C
    -0.44	·
> CC(C)(C)N/C=C(\C#N)S(=O)(=O)c1ccc(Br)cc1
    -0.44	·
> COC(=O)C(CC(=O)c1cccc(C)c1)c1ccc(Cl)cc1 (stereo not drawn)
    -0.29	1.1
> O=C(Cn1nc(C(F)(F)F)c2c1CCCC2)N(Cc1ccccc1)Cc1ccccc1
    -0.365	-0.2
> O=C(NCCc1cccs1)NC1CCN(Cc2ccccc2)CC1
    -0.23	·
> Brc1ccc(C2N(Cc3ccccc3)CCN2Cc2ccccc2)s1
    6.17	·
> Cc1cc(C)nc(Oc2ccc(-c3ncc(S(C)(=O)=O)c(-c4ccc(Cl)cc4)n3)cc2)n1
    -0.005	·

The results go on.
The line under a structure holds: Ba CapD inh	AID504770
> O=C(Nc1nnc(-c2ccccc2Cl)o1)c1ccc(S(=O)(=O)N2CCCC2)cc1
    ·	1.9
> O=C(O)CCCNc1cc(N2CCCC2)c2noc3c2c1C(=O)c1ccccc1-3
    0.21	0.9
> CC1CCc2nc(NC(=O)NCCCN3CCOCC3)sc2C1 (stereo not drawn)
    ·	0.1
> NC(N)=NS(=O)(=O)c1ccc(N=Cc2ccc3c(c2)OCO3)cc1
    0.65	-0.35
> COc1ccc(-c2nnc(SCc3ccc(C(F)(F)F)cc3)o2)cc1
    -0.15	·
> Cc1ccccc1-n1c(-c2ccc(Br)cc2)n[nH]c1=S
    1.92	-0.05
> Cc1nc2ccc(S(=O)(=O)NCC(=O)N3CCc4ccccc43)cc2s1
    0.95	0.65
> CCc1ccc(C(=O)CSc2nnc(-c3nn(Cc4ccccc4)c(=O)c4ccccc34)o2)cc1
    ·	-0.05
> CSC(N)=Nc1csc(C(F)(F)F)c1-c1ccccc1
    0.34	-1.3
> O=C(C[n+]1ccccc1)Nc1c2c(nc3c1CCC3)CCCC2
    2.88	-0.35

Following part.
The line under a structure holds: Ba CapD inh	AID504770
> O=C(CNS(=O)(=O)c1ccccc1)N1CCN(c2ccccc2)CC1
    0.105	-0.45
> COc1ccc(-c2csc(NC(=O)C(C)C)n2)cc1
    ·	-0.9
> CC(=O)Nc1[nH]cc(C)c1C#N
    -0.855	-1.1
> COc1cc(C2NC(=O)NC(C)=C2C(=O)OC(C)C(C)(C)C)cc(Br)c1O (stereo not drawn)
    -0.485	·
> CCn1c(C)nc2cc(C(=O)Nc3nnc(-c4ccccc4Cl)s3)ccc21
    ·	-0.5
> O=c1cc(N2CCCCC2)nc2scc(-c3ccccc3)n12
    1.28	-0.5
> COc1ccc(-c2nc(-c3ccccc3)c(-c3ccc(Cl)cc3)[nH]2)c(OC)c1
    79.7	·
> COc1ccc(-c2ccc3cnn(Cc4cccs4)c3n2)cc1
    ·	1.85
> O=C(Cn1c(C(=O)N(Cc2ccco2)CC2CCCO2)cc2sccc21)c1ccccc1 (stereo not drawn)
    ·	-1.6
> COc1cc(C(=O)N2CCCC2C(=O)OC(C)(C)C)nc(OC)n1 (stereo not drawn)
    -0.68	·

(more compounds)
The line under a structure holds: Ba CapD inh	AID504770
> CCNC(=O)CSc1nc2ccccc2[nH]1
    ·	-0.8
> C#CCn1c(=NC(=O)C2CC2)sc2ccccc21
    ·	-0.7
> N/C(=N\O)c1cccc(NC(=O)C2CC2)c1
    ·	1.05
> COc1cc(NC(=O)c2cnc(N3CCCC3)nc2)cc(OC)c1OC
    0.72	0.15
> CN(C/C(O)=C(\C#N)c1ccccc1)C1CCCCC1
    ·	-0.55
> Cn1ccnc1SCc1nc(-c2ccccc2)no1
    ·	0.6
> COc1ccc2cc3cc(C(=O)NCc4ccco4)oc3nc2c1
    1.71	1.65
> NCCc1ccc(F)cc1
    ·	-0.55
> C/C(N)=C(/C#N)C(=O)CSc1nc2ccccc2c(=O)n1-c1ccc(C)cc1
    ·	0.2
> CCOC(=O)c1c(NC(=O)CSc2nnc(CNC(=O)c3ccco3)n2CCc2ccccc2)sc2c1CCCC2
    -0.235	·

Entries of single compounds, quoted from the list:
Results for COc1cc(NC(=O)c2cnc(N3CCCC3)nc2)cc(OC)c1OC = Ba CapD inh: 0.72; AID504770: 0.15
Results for C/C(N)=C(/C#N)C(=O)CSc1nc2ccccc2c(=O)n1-c1ccc(C)cc1 = Ba CapD inh: ·; AID504770: 0.2

Later entries.
The line under a structure holds: Ba CapD inh	AID504770
> CCOC(=O)C1=C(N)OC2=C(C(=O)CC(c3ccccc3)C2)C1c1ccc([N+](=O)[O-])cc1 (stereo not drawn)
    -0.44	·
> COc1cc(NC(=S)N2CCCCC2CO)cc(OC)c1 (stereo not drawn)
    -0.135	-0.25
> O=C(NC1CCCCC1)C(Cc1c[nH]c2ccccc12)NC(=O)C(c1ccccc1)c1ccccc1 (stereo not drawn)
    -0.58	-0.55
> COc1ccc(S(=O)(=O)N2CCc3ccc(NC(=O)c4cccs4)cc32)cc1
    -0.285	·
> Cc1nnc(Nc2ccccc2)c2c1nnn2Cc1ccccc1Cl
    3.98	0.1
> Cc1nn(-c2ccccc2)c2nc3oc(C(=O)c4ccc(Br)cc4)c(N)c3c(-c3cccnc3)c12
    0.01	0.55
> N#Cc1c(-c2ccccc2)cc(-c2ccccc2)nc1SCC(O)CS(=O)Cc1ccccc1 (stereo not drawn)
    0.08	0.85
> Cc1ccccc1OCC(=O)N1CCc2ccccc2C1
    0.535	-1.25
> COc1ccc(NC(=O)c2ccc(C3SCC(=O)N3Cc3ccco3)cc2)cc1 (stereo not drawn)
    ·	0.4
> COc1cc(OC)cc(-c2nnc(NC(=O)c3ccc(S(=O)(=O)N(C)c4ccccc4)cc3)o2)c1
    ·	0.15

The list goes on.
The line under a structure holds: Ba CapD inh	AID504770
> C=CCOc1cccc(CNn2nnnc2N)c1
    ·	-0.65
> CC(O)(CNCc1ccc(Cl)cc1)CSc1ccc(Cl)cc1 (stereo not drawn)
    -0.58	0.35
> CC(=O)NCc1ccc(C(=O)CSc2nnc(-c3ccccc3)o2)cc1
    ·	-0.6
> CC(=O)Nc1ccc(-c2cn(CC(N)=O)cn2)cc1
    0.625	1.7
> Clc1ccc(CNc2nccs2)cn1
    0.52	-0.85
> Clc1cccc(C2C=C(c3ccccc3Cl)Nc3ncnn32)c1 (stereo not drawn)
    0.755	-0.55
> C=CCNc1nc(C(=O)OCC(=O)N(C2CCCCC2)C2CCS(=O)(=O)C2)cs1 (stereo not drawn)
    ·	0.7
> Cc1nc(CSc2nc3scc(-c4ccco4)c3c(=O)n2-c2ccccc2)cs1
    0.325	1.5
> C=CCn1c(SCC(=O)c2ccccc2)nnc1-c1ccc2c(c1)OCO2
    0.34	-0.6
> Nc1ccc(Br)cc1-c1nc2ccccc2[nH]c1=O
    59.2	-0.2

Additional results follow.
The line under a structure holds: Ba CapD inh	AID504770
> O=C(NC1CCN(Cc2ccccc2)CC1)c1ccc2c(c1)CCO2
    -0.525	0.15
> CCC1CCCCN1S(=O)(=O)Cc1ccccc1Cl (stereo not drawn)
    0.43	-0.1
> CC(C)(C)C(=O)Nc1ccncc1C(=O)O
    0.235	-1.35
> Cc1ncc(-c2cc3c(ccc4ccccc43)oc2=O)s1
    9.13	0.45
> O=C(c1nn2c(C(F)(F)F)cc(-c3ccccc3)nc2c1Br)N1CCOCC1
    -0.305	·
> CCOC(=O)c1[nH]c(C)c(C=C(C#N)C#N)c1C
    ·	0.75
> Cc1nc(N)nc(CSc2ccc(Cl)cc2)n1
    -0.635	1.4
> NS(=O)(=O)c1ccc(NC(=O)COc2ccccc2)cc1
    0.4	-0.7
> CCOc1ccc(NC(=O)CSc2nc3[nH]ncc3c(=O)n2-c2cccc(C(F)(F)F)c2)cc1
    -0.16	·
> CCCCCCC#Cc1cncc(C(=O)O)c1
    -0.18	·

The results go on:
The line under a structure holds: Ba CapD inh	AID504770
> O=C(Nc1cccc(-c2nc3ccccc3c(=O)o2)c1)c1ccccc1Br
    -2.58	0.6
> O=C1c2cccc3c([N+](=O)[O-])ccc(c23)C(=O)N1Cc1ccco1
    0.575	·
> O=C(O)c1cccc(S(=O)(=O)N2CCCC2)c1
    -0.035	1.8
> CCOc1ccc2c(c1)C(C)=CC(C)(C)N2
    -0.29&0.2	-0.1
> C[C@@H](C(=O)Nc1ccccc1N1CCOCC1)N1C(=O)C2CC=CCC2C1=O (stereo partly drawn)
    ·	-0.05
> CN1C(=O)C2(OCC(C)(c3ccccc3)CO2)c2ccccc21 (stereo not drawn)
    0.43	·
> CC(=O)c1cc(NC(=O)c2ccc(Cl)cc2)c(=O)oc1/C=C/N(C)C
    -1.13	·
> O=C1c2ccccc2C(=O)N1c1ccc2c(C(F)(F)F)cc(=O)oc2c1
    9.61	0.1
> CC(=C/C(=O)O)/C=C/c1cccs1
    -1.62	0.1
> Cc1c(OCC(N)=O)ccc2c3c(c(=O)oc12)CCCC3
    6.58	1.55

Next part:
The line under a structure holds: Ba CapD inh	AID504770
> COC(=O)C1=C(N)N(c2ccc(S(N)(=O)=O)cc2)C2=C(C(=O)CCC2)C1c1ccc([N+](=O)[O-])cc1 (stereo not drawn)
    -0.405	·
> N=c1scc(-c2ccc(Br)cc2)n1-c1ccccc1
    0.085	·
> O=C(NC(=O)C1CCCCC1)c1ccccc1O
    1.79	-0.9
> N#Cc1ccccc1Sc1ccccc1C(=O)NCC(c1ccco1)N1CCCC1 (stereo not drawn)
    ·	0.05
> O=C(Nc1cc(=O)[nH][nH]1)c1cc(-c2ccc(F)cc2)nc2ccccc12
    3.26	-2.2
> Cn1nc(C(=O)N2CCCC2)c2ccccc2c1=O
    0.4	-0.05
> Cc1ccc(-n2nc3c(c2NC(=O)CCC2CCCC2)CS(=O)C3)cc1 (stereo not drawn)
    -1.04	0.15
> NC(=O)C1CCN(C(=O)c2ccc3c(=O)n(-c4ccccc4)c(SCc4ccc(Cl)cc4)nc3c2)CC1
    0.22	·
> O=C(O)C1CCN(C(=O)c2ccc(F)cc2F)CC1
    -0.18	0.45
> CC1=C(C(=O)Nc2ccc(Br)cn2)C(c2cc([N+](=O)[O-])ccc2Cl)C2=C(CC(C)(C)CC2=O)N1 (stereo not drawn)
    -0.59	·
> Cc1cc(N2CCN(CC(O)C(F)(F)F)CC2)c2ccccc2n1 (stereo not drawn)
    -1.18	1.95
> CCOC(=O)CC1C(=O)NCCN1C(=O)c1cccc(C(F)(F)F)c1 (stereo not drawn)
    -0.09	·
